Source: PubChem BioAssay
rRNA inh HTS: selective bacterial rRNA inhibition in E. coli | 350,000 tested, 1.6% active | GFP signal change (wild-type ribosome), % (no concentration beside the values) | AID 720706 | E. coli WT GFP vs humanized-ribosome RFP mutants, fluorescence, 24 h; stronger effect = lower value; DMSO median 0, no signal -100;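 active = significant combined selectivity score with lowered wild-type GFP, culture density cut under 30%, mutant RFP and density less affected; inactive = any of these conditions unmet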; also: one replicate is shown; some compounds called inactive have numbers as strong as hits
AF4-AF9 inh: MLL-AF4/AF9 protein interaction inhibition | inhibition, % at 10 µM | AlphaScreen, biotin-AF4 peptide binding to FLAG-AF9 | 350,000 tested, 0.47% active;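 active = every replicate reaching a set inhibition limit, whatever the replicate mean, cut at about 25% in these data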;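 also: 0% = plate neutral control median and 100% = total signal loss; the record names both 10 and 1 µM as test concentration; the first replicate is given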
Target sequence (P42568 whole entry, looked up): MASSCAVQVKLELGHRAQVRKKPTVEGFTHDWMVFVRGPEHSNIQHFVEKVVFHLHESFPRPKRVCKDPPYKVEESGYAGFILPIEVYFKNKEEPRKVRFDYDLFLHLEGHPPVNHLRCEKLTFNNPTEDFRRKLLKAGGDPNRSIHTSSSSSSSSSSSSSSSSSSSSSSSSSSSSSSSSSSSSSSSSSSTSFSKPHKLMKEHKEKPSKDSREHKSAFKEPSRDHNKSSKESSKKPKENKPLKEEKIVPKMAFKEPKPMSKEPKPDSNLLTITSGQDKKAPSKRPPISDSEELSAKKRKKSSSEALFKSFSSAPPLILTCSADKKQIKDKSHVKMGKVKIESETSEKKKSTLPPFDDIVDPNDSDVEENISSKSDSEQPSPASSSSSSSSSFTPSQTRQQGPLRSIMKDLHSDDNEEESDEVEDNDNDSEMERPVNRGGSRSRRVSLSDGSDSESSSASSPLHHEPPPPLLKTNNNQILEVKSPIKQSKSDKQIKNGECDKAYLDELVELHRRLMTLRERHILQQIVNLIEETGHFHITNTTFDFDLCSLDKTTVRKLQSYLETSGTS
rRNA inh HTS OD600: second read-out of rRNA inh HTS, no call of its own (marks repeat the call); OD600 change, %; measured here: OD600 growth;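 optical density of the mix in the first replicate; 0 = DMSO median and -100 = no signal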
rRNA inh HTS RFP: also measured in rRNA inh HTS; calls as there; RFP signal change, %; measured here: RFP humanized mutant strains;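 first replicate; 0 = DMSO median and -100 = no signal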
* marks the source's active call; other numbers are inactive results. These rows are one share of the data, so the mix of outcomes need not match the whole.

Start of the data: the first 2 compounds, ahead of the listing:
rRNA inh HTS,rRNA inh HTS OD600,rRNA inh HTS RFP,AF4-AF9 inh,structure
3,9,-1.5,-3.0,O=C(C[C@@H]1CC[C@H](NC(=O)CN2CCOCC2)[C@@H](CO)O1)NCCc1ccccc1
1,10,2.2,1.9,COc1ccc(OC)c(NC(=O)c2cc(-c3cc(F)ccc3OCC3CCCO3)n[nH]2)c1 (configuration not stated)

The whole of this part, repeating the preview:
rRNA inh HTS,rRNA inh HTS OD600,rRNA inh HTS RFP,AF4-AF9 inh,structure
3,9,-1.5,-3.0,O=C(C[C@@H]1CC[C@H](NC(=O)CN2CCOCC2)[C@@H](CO)O1)NCCc1ccccc1
1,10,2.2,1.9,COc1ccc(OC)c(NC(=O)c2cc(-c3cc(F)ccc3OCC3CCCO3)n[nH]2)c1 (configuration not stated)
-1,-4,11,-0.6,COC(=O)[C@]12C[C@H](CC(=O)NCCCCc3ccccc3)C(=O)N(CCC3=CCCCC3)C1=C[C@H](COCc1ccccc1)O[C@@H]2C
22,26,7.7,0.9,C(=C\c1ccccc1)/CN1CCN(C(c2cc3ccccc3o2)c2nnnn2C2CCCCC2)CC1 (configuration not stated)
0,-1,0.0,-4.4,CS(=O)(=O)N1[C@@H](C#N)[C@@H](c2ccccc2-c2ccccc2F)[C@@H]1CO
2,-11,-0.5,3.4,CN(C)C(=O)c1cccc(-c2cnc3c(NC=O)cc(-c4ccc(F)cc4)cn23)c1
0,-1,1.9,-1.4,C[C@@H]1CN([C@H](C)CO)C(=O)Cc2cc(NC(=O)Nc3cccc4ccccc34)ccc2O[C@@H]1CN(C)Cc1ccncc1
-58,-82,-18,9.6,COc1ccc(CNC(=O)Nc2nc(C(N)Cc3ccc(C(F)(F)F)cc3)cs2)cc1 (configuration not stated)
-2,7,-0.9,8.4,COc1ccc(-c2ccc([C@H]3[C@H](CO)N4C(=O)CN(Cc5ccccc5)C[C@@H]34)cc2)cc1
0,1,0.4,-0.5,C[C@H](CO)N1C[C@H](C)[C@@H](CN(C)C(=O)Nc2ccc(F)cc2)Oc2c(NS(=O)(=O)c3cn(C)cn3)cccc2C1=O
1,-1,-2.1,-1.5,O=C(NC1Cc2ccccc2C1)[C@H]1[C@H](CO)[C@H]2Cn3c(cccc3=O)[C@H]2N1C(=O)C1CCC1
5,19,0.2,-2.8,N#C[C@H]1[C@H](c2ccccc2)[C@H](CO)N1C(=O)c1ccc2c(c1)OCO2
-1,6,2.2,0.7,CC(C)C#Cc1cnc2c(c1)C(=O)N([C@@H](C)CO)C[C@@H](C)[C@@H](CN(C)C(=O)Nc1cccc(F)c1)O2
2,4,-3.8,-0.2,CC=Cc1ccc2n(c1=O)C[C@H]1[C@H](CO)[C@@H](C(=O)NCc3ccccn3)[C@@H]2N1CCC (mixture of isomers)
3,6,-2.6,-2.4,C[C@H](CO)N1C[C@H](C)[C@@H](CN(C)S(=O)(=O)c2ccc(F)cc2)Oc2cc(C#Cc3ccc(F)cc3)ccc2S1(=O)=O
-7,-24,3.4,1.9,C/C=C/c1ccc2c(c1)O[C@H](CN(C)C(=O)C1CCCCC1)[C@H](C)CN([C@@H](C)CO)S2(=O)=O
4,1,0.4,2.6,COc1ccc2c3c(n(C)c2c1)[C@@H](CO)N(Cc1ccccc1Cl)CC31CCN(C(C)=O)CC1
-5,3,-0.1,0.1,Cc1ccccc1S(=O)(=O)N[C@H]1CC[C@@H](CCn2cc(Cc3ccccc3)nn2)O[C@H]1CO
-7,-6,-0.8,-3.1,CCCCC[C@@H]1C=C(C(=O)O)[C@H](c2ccc(C)cc2)N1S(=O)(=O)c1ccc(C)cc1
-7,0,-0.9,-1.5,O=C(C[C@@H]1C=C[C@H](NC(=O)c2ccc3c(c2)OCO3)[C@@H](CO)O1)NCc1ccc(Oc2ccccc2)cc1
-6,-6,-3.9,-1.8,O=C(NCC[C@H]1CC[C@@H](NC(=O)C2CCCCC2)[C@H](CO)O1)c1ccc(F)cc1
4,6,2.8,-3.3,CC1(C)CC(=O)C=C(C(=O)N2CCCC(C(=O)c3cc(F)ccc3F)C2)O1 (configuration not stated)
4,4,1.9,-0.6,COc1ccc(CN(C)C[C@@H]2Oc3c(NS(=O)(=O)c4ccccc4)cccc3C(=O)N([C@@H](C)CO)C[C@H]2C)cc1
-4,1,3.6,-1.3,COc1cccc(S(=O)(=O)N(C)C[C@H]2Oc3ncc(C#CCN(C)C)cc3C(=O)N([C@@H](C)CO)C[C@@H]2C)c1
-25,-57,1.1,0.2,O=C(C[C@@H]1CC[C@H]2[C@@H](COC[C@H](O)CN2Cc2ccc(C(F)(F)F)cc2)O1)NCCc1ccccc1
-1,-7,-0.7,2.4,C[C@H]1CCCCO[C@H](CN(C)C(=O)NC2CCCCC2)[C@@H](C)CN([C@@H](C)CO)C(=O)c2cc(NC(=O)CCC(F)(F)F)ccc2O1
-55,-79,-20,-6.7,CN1c2ccc(Br)cc2[C@@H]2[C@@H](CCN2S(=O)(=O)c2ccccc2F)[C@H]1CO
-4,-3,-0.2,-1.7,C[C@H](CO)N1C[C@H](C)[C@H](CN(C)C(=O)C2CCOCC2)Oc2cc(-c3ccc(F)cc3)ccc2S1(=O)=O
8,13,-1.6,-0.4,CC1(c2nc3ccccc3[nH]2)CCC(=O)N1Cc1ccccn1 (configuration not stated)
-2,1,0.3,0.7,CC(=O)Nc1ccc2c(c1)C(=O)N(C)[C@@H]1CC[C@H](CC(=O)NCc3ccc(Cl)cc3)O[C@@H]1CO2
-4,-7,1.2,0.0,COc1ccc(S(=O)(=O)Nc2ccc3c(c2)C(=O)N([C@H](C)CO)C[C@@H](C)[C@H](CN(C)C(=O)Nc2ccc(C(F)(F)F)cc2)OCCCC[C@@H](C)O3)cc1
2,10,4.1,-1.8,N#Cc1cccc(NC(=O)c2cc(C3CCCCN3C(=O)CCCc3ccccc3)on2)c1 (configuration not stated)
-1,-5,2.8,0.1,C[C@H](CO)N1C[C@H](C)[C@H](CN(C)C(=O)CCC(F)(F)F)OCCCC[C@H](C)Oc2ccc(NC(=O)Cc3ccccc3)cc2C1=O
-54,-72,-16,4.2,OC(c1cc(F)cc(Cl)c1)c1ncc(-c2ccccc2C(F)(F)F)[nH]1 (configuration not stated)
-12,-32,4.7,4.8,COc1cccc(NC(=O)N2CC(=O)N3[C@H](CO)[C@H](c4ccc(C#CC5CCCC5)cc4)[C@H]3C2)c1
-2,-11,-0.3,-0.3,O=C(C[C@H]1C[C@H]2c3cc(NS(=O)(=O)c4ccccc4)ccc3O[C@H]2[C@H](CO)O1)NCC1CC1
0,8,-2.1,13,C=CCNc1nc(Nc2ccc(OC)c(OC)c2)c2sc(-c3ccccc3)cc2n1
0,-1,13,0.4,COc1ccc2c3c([nH]c2c1)[C@@H](CO)N(Cc1ccncc1)CC31CCN(C(=O)c2cccnc2)CC1
15,8,1.6,3.0,CCOC1=C2[C@H](c3ccc(Cl)cc3)N(S(=O)(=O)c3ccc(C)cc3)C[C@H]2n2c(=O)n(-c3ccccc3)c(=O)n2C1
2,-1,0.0,1.8,Cn1cnc(S(=O)(=O)N[C@H]2C=C[C@H](CC(=O)N3CCN(c4ccccc4)CC3)O[C@@H]2CO)c1

Looked up above:
C[C@H](CO)N1C[C@H](C)[C@H](CN(C)C(=O)CCC(F)(F)F)OCCCC[C@H](C)Oc2ccc(NC(=O)Cc3ccccc3)cc2C1=O in rRNA inh HTS → -1
COc1cccc(NC(=O)N2CC(=O)N3[C@H](CO)[C@H](c4ccc(C#CC5CCCC5)cc4)[C@H]3C2)c1 in rRNA inh HTS → -12
COc1cccc(S(=O)(=O)N(C)C[C@H]2Oc3ncc(C#CCN(C)C)cc3C(=O)N([C@@H](C)CO)C[C@@H]2C)c1 in AF4-AF9 inh → -1.3
COc1ccc2c3c([nH]c2c1)[C@@H](CO)N(Cc1ccncc1)CC31CCN(C(=O)c2cccnc2)CC1 in AF4-AF9 inh → 0.4
COc1ccc(CN(C)C[C@@H]2Oc3c(NS(=O)(=O)c4ccccc4)cccc3C(=O)N([C@@H](C)CO)C[C@H]2C)cc1 in rRNA inh HTS OD600 → 4
O=C(C[C@@H]1CC[C@H]2[C@@H](COC[C@H](O)CN2Cc2ccc(C(F)(F)F)cc2)O1)NCCc1ccccc1 in rRNA inh HTS → -25

New compounds follow
rRNA inh HTS,rRNA inh HTS OD600,rRNA inh HTS RFP,AF4-AF9 inh,structure
0,3,-0.2,-4.0,CN1CCN(C(=O)C[C@H]2CC[C@@H]3[C@H](COC[C@@H](O)CN3Cc3cccc(-c4ccncc4)c3)O2)CC1
-5,-7,-1.8,-2.2,C[C@H](CO)N1C[C@H](C)[C@H](CN(C)C(=O)c2cnccn2)Oc2cc(C3=CCCC3)ccc2S1(=O)=O
2,6,0.4,4.3,C[C@@H]1CN([C@@H](C)CO)C(=O)Cc2cc(NC(=O)Nc3cccc4ccccc34)ccc2O[C@H]1CN(C)Cc1ccccc1
-46,-74,-5.8,5.9,C/C=C/c1ccc([C@@H]2[C@@H](CO)N3CCCCN(S(=O)(=O)c4ccc(OC)cc4)C[C@H]23)cc1
-3,-5,-5.4,0.0,COc1ccc(S(=O)(=O)Nc2ccc3c(c2)[C@@H]2C[C@H](CC(=O)O)O[C@@H](CO)[C@@H]2O3)cc1
-3,4,7.9,-1.1,COc1ccc2c3c([nH]c2c1)[C@@H](CO)N(C(=O)NC(C)C)CC31CN(C(=O)C2CCCCC2)C1
-3,3,3.6,-1.3,O=C(C[C@H]1C[C@@H]2c3cc(NS(=O)(=O)c4ccc(F)cc4)ccc3O[C@@H]2[C@@H](CO)O1)NCc1cccnc1
7,19,-1.7,4.4,COc1ccc2c3c([nH]c2c1)[C@@H](CO)N(C(=O)CN(C)C)CC31CCN(CC2CC2)CC1
0,-8,0.0,3.2,Cc1noc(C)c1NC(=O)Nc1ccc2c(c1)CC(=O)N([C@@H](C)CO)C[C@@H](C)[C@H](CN(C)CC1CCCCC1)O2
13,13,0.7,-1.6,O=C(OCC(=O)N1CCN(C(=O)c2ccco2)CC1)c1cccc(F)c1
1,-1,-2.2,-1.4,C[C@@H]1CN([C@@H](C)CO)C(=O)c2cc(NC(=O)CCCN(C)C)ccc2O[C@@H](C)CCCCO[C@@H]1CN(C)S(=O)(=O)c1cn(C)cn1
2,1,-1.1,-2.0,C[C@@H](NC(=O)C[C@@H]1CC[C@H](NC(=O)Cc2ccccn2)[C@@H](CO)O1)c1ccccc1
-2,-6,-2.0,1.9,COc1ccc2c3c(n(C)c2c1)[C@H](CO)N(CC1CC1)CC31CN(C(=O)NC2CCCC2)C1
1,-2,0.1,3.7,Cc1noc(C)c1NC(=O)NCC[C@@H]1CC[C@@H](NC(=O)c2ccncc2)[C@H](CO)O1
1,-10,0.2,0.1,Cc1ccccc1-c1ccc2c(c1)O[C@@H](CN(C)C(=O)Nc1ccccc1)[C@H](C)CN([C@H](C)CO)S2(=O)=O
2,2,1.5,-1.9,CNC[C@H]1Oc2ccc(NS(=O)(=O)c3ccccc3)cc2C(=O)N([C@@H](C)CO)C[C@@H]1C
-23,-55,5.2,-0.2,CCCNC(=O)N1[C@H](C#N)[C@H](c2ccc(-c3ccccc3F)cc2)[C@H]1CO
-5,-8,-1.5,-1.0,C/C=C/c1ccc2c(c1)O[C@@H](CN(C)C(=O)CC)[C@H](C)CN([C@H](C)CO)S2(=O)=O
6,13,1.3,2.1,COc1ccc(CN2C(=O)CSCC2(C)C(=O)NCc2ccccc2)cc1 (configuration not stated)
-6,-2,-4.1,-0.6,COc1ccc(NC(=O)Nc2ccc3c(c2)C(=O)N([C@H](C)CO)C[C@H](C)[C@H](CN(C)C(=O)Nc2ccc(C(F)(F)F)cc2)OCCCC[C@@H](C)O3)cc1
-7,0,16,-3.1,O=C(c1cccc(F)c1)N1CC[C@@H]2[C@@H](CO)Nc3ccc(C#Cc4cccc(F)c4)cc3[C@@H]21
-2,8,1.5,0.4,C[C@@H]1CCCCO[C@H](CN(C)C(=O)C2CCCCC2)[C@H](C)CN([C@H](C)CO)C(=O)c2cc(NC(=O)Nc3cccc4ccccc34)ccc2O1
-1,-7,-0.3,5.1,CCCC(=O)Nc1ccc2c(c1)C(=O)N(C)[C@@H]1CC[C@@H](CC(=O)NCc3ccccc3Cl)O[C@H]1CO2
0,-13,2.3,-0.3,OC[C@@H]1CN(Cc2ccc(F)cc2)C[C@H](n2cnc3c(NCc4ccc(F)cc4)ncnc32)O1
0,-17,0.9,0.9,C[C@@H]1CN([C@@H](C)CO)C(=O)Cc2cc(NS(=O)(=O)c3ccc(F)cc3)ccc2O[C@@H]1CN(C)C(=O)Nc1ccc(C(F)(F)F)cc1
-6,-22,0.7,3.9,Cc1ccc(-c2cnc(C(O)c3ccc(C)cc3)[nH]2)cc1 (configuration not stated)

In the list so far, these contain a Cl atom.
rRNA inh HTS,rRNA inh HTS OD600,rRNA inh HTS RFP,AF4-AF9 inh,structure
4,1,0.4,2.6,COc1ccc2c3c(n(C)c2c1)[C@@H](CO)N(Cc1ccccc1Cl)CC31CCN(C(C)=O)CC1
-2,1,0.3,0.7,CC(=O)Nc1ccc2c(c1)C(=O)N(C)[C@@H]1CC[C@H](CC(=O)NCc3ccc(Cl)cc3)O[C@@H]1CO2
-54,-72,-16,4.2,OC(c1cc(F)cc(Cl)c1)c1ncc(-c2ccccc2C(F)(F)F)[nH]1 (configuration not stated)
15,8,1.6,3.0,CCOC1=C2[C@H](c3ccc(Cl)cc3)N(S(=O)(=O)c3ccc(C)cc3)C[C@H]2n2c(=O)n(-c3ccccc3)c(=O)n2C1
-1,-7,-0.3,5.1,CCCC(=O)Nc1ccc2c(c1)C(=O)N(C)[C@@H]1CC[C@@H](CC(=O)NCc3ccccc3Cl)O[C@H]1CO2
